VDR inhibitor = inhibitors of human vitamin D receptor; P11473; VDR-SRC2-3 peptide fluorescence polarization, 2 h; Potency, µM, for the others: max response, negative = inhibition, usual class: inhibitors; 0.93% of 400,000 active; active = well fitted inhibition curve with a large enough effect; inconclusive = small, poorly fitted or top-dose-only effect, or another doubt; inactive = no such curve, though single readings can be large or run the other way; also: series mostly up to about 120 µM
Target sequence (P11473 whole entry, looked up): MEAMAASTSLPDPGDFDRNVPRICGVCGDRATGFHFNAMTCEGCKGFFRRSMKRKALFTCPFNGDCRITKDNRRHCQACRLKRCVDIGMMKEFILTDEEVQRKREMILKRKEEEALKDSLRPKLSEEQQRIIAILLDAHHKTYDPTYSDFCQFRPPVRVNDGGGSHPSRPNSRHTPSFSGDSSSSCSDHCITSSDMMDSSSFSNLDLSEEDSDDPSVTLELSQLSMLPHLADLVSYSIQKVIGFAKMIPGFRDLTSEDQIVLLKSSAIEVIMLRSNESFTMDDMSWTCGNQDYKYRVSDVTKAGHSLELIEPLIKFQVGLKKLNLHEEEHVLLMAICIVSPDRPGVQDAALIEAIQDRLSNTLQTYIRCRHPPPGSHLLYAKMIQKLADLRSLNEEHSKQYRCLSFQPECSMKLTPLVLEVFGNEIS
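Measured by FP: displacement of SRC2-3 coactivator peptide from VDR by library compounds, following a two-hour ambient incubation.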
* marks the source's active call; other numbers are inactive results; ? = inconclusive; & = joins results of further samples. % is scaled to controls: 0 for no effect and ±100 for the full control effect; potency is read from the fitted curve at half-maximal effect. The list is partial; rates above refer to the full screens.

canonical_smiles | VDR inhibitor
COc1ccc(OCc2cc(C(=O)NC3CCc4ccccc43)no2)c(Cl)c1 (stereo not given) | 10.3%
COC(=O)c1ccc2c(=O)n(CCc3ccc(S(N)(=O)=O)cc3)c(SCC(=O)C(C)(C)C)nc2c1 | 14.5%
Cc1ccc(C2c3[nH]c4ccccc4c3CCN2C(=O)CSc2ccccc2)cc1 (stereo not given) | -2.4%
NNC(=O)c1nc(-c2cccc(-n3cccc3)c2)no1 | 23.0%
COc1ccc(NC(=O)CSc2nnc(-c3nonc3NC(C)=O)n2C)cc1Cl | 10.2%
CC1=CC(C)(C)NC(=S)N1c1cccc2ccccc12 | 10.6%
COCC(=O)Nc1ccc(C(N)=O)cc1 | -12.9%
CCN(CC)c1ccc(/C=N/N2CC(=O)NC2=S)cc1 | 13.0%
OCC[C@H]1C[C@@H](O)[C@H](O)[C@@]2(CCCCO2)O1 | 12.2%
Cc1cccc(N2C(=O)C(Cl)=C(N3CCOCC3)C2=O)c1 | ?
CC(=O)c1c(C)nc(-c2ccc3c(c2)OCO3)n1O | -3.2%
COC(=O)c1[nH]c(C)c(/C(O)=C2\C(=O)C(=O)N(CCN3CCOCC3)C2c2cccnc2)c1C (stereo not given) | -20.0%
COc1ccc(-c2nn(-c3ccccc3)cc2/C=N/N2C(=O)CSC2=S)cc1 | 27.1%
CC1CCCCN1S(=O)(=O)c1cccc(S(=O)(=O)N2CCOCC2)c1 (stereo not given) | 6.7%
Cc1nc(CSc2ccc(Cl)cc2)cc(N2CCOCC2)n1 | -3.9%
COc1cc2c(C(=O)N3CCN(c4ccccc4)CC3)c(C)oc2cc1Br | 7.8%
CCOC(=O)c1c(-c2ccccc2)oc2ccc(N(C(C)=O)S(=O)(=O)c3ccc(C)cc3)cc12 | 8.3%
CCCOC(=O)CCCC[C@H]1SC[C@@H](NC(=O)OC)[C@H]1NC(=O)OC | 18.1%
Oc1ccccc1N1CCN(c2ncccn2)CC1 | 19.5%
CCOC(=O)c1cn(CC(=O)Nc2ccc(OC)cc2OC)nn1 | -19.1%&-15.3%
O=C(Nc1cccc(-c2cnc3ccccc3n2)c1)c1ccc(Cl)cc1 | 1.4%
COc1ccc(CN2C(=O)[C@@H]3C(c4ccccc4Cl)=NO[C@@H]3C2=O)cc1 | 4.8%
COC(=O)c1c(-c2ccc(Cl)cc2)noc1N1CCN(c2cc(C)ccc2C)CC1 | 6.2%
O=C(NCC(c1cccs1)N1CCOCC1)C1CCN(S(=O)(=O)c2cc(Cl)ccc2Cl)CC1 (stereo not given) | -13.1%
COc1cccc(/C=C(\C#N)C(=O)NC2CCS(=O)(=O)C2)c1 (stereo not given) | -16.0%
CCN(CC(=O)NCc1ccc(Cl)cc1)C(=O)CSCC(=O)Nc1cccc(C)c1 | 2.1%
CCCOc1ccc(C(=O)NNC(=O)CCNC(=O)c2ccco2)cc1OC | -0.9%
CC1CCCN(C(=O)CCCNC(=O)c2ccc(Cl)cc2)C1 (stereo not given) | 2.0%
COCCn1c(SCC(=O)Nc2ccc3[nH]c(=O)[nH]c3c2)nc2ccccc21 | -6.4%
CCOc1ccccc1Oc1coc2cc(OC(=O)c3ccco3)ccc2c1=O | 7.6%
O=S(=O)(Nc1ccc(Br)cc1)c1cccc(NC(=S)NCCN2CCOCC2)c1 | -5.3%
Cc1ccccc1CN1CCN(C(=O)c2ccc(S(=O)(=O)NCc3ccco3)cc2)CC1 | -0.6%
CN1CCN(CCOC2Cc3ccccc3Sc3ccc(Cl)cc32)CC1 (stereo not given) | -8.5%
Cc1cccc(NNC(=S)Nc2c(C)cccc2C)c1 | ?
NNC(=S)Nc1ccc(OC(F)(F)F)cc1 | -11.6%
COc1ccc(OC)c(C(=O)c2coc3ccc(O)cc23)c1 | 2.0%
O=C(Nc1ccc(N2CCOCC2)cc1N1CCOCC1)c1ccc([N+](=O)[O-])cc1Cl | 11.8%
COc1ccc(Br)c(C(=O)N2CCN(S(=O)(=O)/C=C/c3ccccc3)CC2)c1 | -8.8%
CCCNS(=O)(=O)c1ccc(OCC(=O)Nc2ccccc2F)cc1 | 9.8%
COc1ccccc1/C=C/C=N/n1c(-c2cc(-c3ccccc3)n[nH]2)n[nH]c1=S | -10.1%
CCCc1nc(SCc2ccccn2)c2c(=O)n(C)c(=O)n(C)c2n1 | -7.0%
CCS(=O)(=O)N1CCN(C(C)CCc2ccccc2)CC1 (stereo not given) | -16.9%
c1ccc2c(c1)CC/C2=N/Nc1nc2ccccc2[nH]1 | -1.6%
CC1CCC2C(C)C3C(CC4[C@@H]5CC=C6C[C@@H](O)CC[C@]6(C)C5CC[C@]34C)N2C1 (stereo not given in full) | 3.7%
CCOC(=O)c1cc(-c2ccccc2)n(CC(=O)Nc2ccc(OC)c(OC)c2)c1C | 0.8%
Cc1nnc(NC(=O)c2ccc(S(=O)(=O)N3CCc4ccccc4C3)cc2)o1 | -5.3%
COCc1nc2oc3ccccc3c(=O)c2cc1C(=O)OC | 15.2%
COc1ccccc1CNC(=O)CCNS(=O)(=O)c1ccc2c(c1)CCCC(=O)N2 | 4.0%
COc1ccc(CSCC(=O)N/N=C/c2ccccc2OCc2ccccc2)cc1 | -2.5%
NC(=O)CC(NC(=S)NCc1ccccc1)C(=O)O (stereo not given) | -5.9%
COc1ccc(Cl)cc1NC(=O)NC(C)c1ccncc1 (stereo not given) | 9.6%
CCc1ccc(CN(C)C(=O)c2ccc3c(c2)OCCO3)cc1 | -10.3%
Cc1ccc(S(=O)(=O)c2c(C)nn(C(C)(C)C)c2OC(=O)C(C)C)cc1 | -24.4%
COc1cc(NC(=O)CSc2nc3ccccc3nc2Cc2ccccc2OC)cc(OC)c1 | 9.5%
COc1cc(S(=O)(=O)NCc2ccccn2)c(OC)cc1Cl | 13.3%
c1cncc(CNc2ncnc3ccc(-c4ccc5c(c4)OCO5)cc23)c1 | -3.4%
CC(=O)C1=C(C)Nc2ncnn2C1c1cccc(Br)c1 (stereo not given) | -0.8%
C=CCOc1ccc(Cl)cc1CNCCCN1CCOCC1 | 18.6%
CCOC(=O)c1cc(-c2ccccc2)n(CCC(=O)O)c1C | 4.9%
COc1ccc(Nc2cc(C)nc(N3CCOCC3)n2)cc1 | -8.9%

Next part:
canonical_smiles | VDR inhibitor
CSCC[C@H](NC(=O)[C@@H]1CCCN1C(=O)CNC(=O)[C@H](CCCCN)NC(=O)[C@H](Cc1cnc[nH]1)NC(=O)[C@H](CO)NC(=O)[C@H](CC(C)C)NC(=O)[C@H](CCCNC(=N)N)NC(=O)[C@@H]1CCCN1C(=O)[C@H](CCCNC(=N)N)NC(=O)[C@H](CCC(N)=O)NC(=O)[C@H](CCCNC(=N)N)NC(=O)[C@H](CCCNC(=N)N)NC(=O)[C@H](Cc1ccccc1)NC(=O)[C@@H](N)CCCCN)C(=O)N1CCC[C@H]1C(=O)N[C@@H](Cc1ccccc1)C(=O)O | 0.1%
COc1ccc(C(=O)N2CCN(c3nnnn3-c3ccccc3)CC2)cc1OC | 0.0%
CN(Cc1ccco1)C(=O)CSc1nc(C2CC2)n(-c2ccccc2)n1 | ?
CSc1ncccc1C(=O)OCC(=O)N1CCN(C(=O)c2ccco2)CC1 | -6.3%
CCCN(Cc1cc2cccc(C)c2[nH]c1=O)C(=O)c1cccc(Cl)c1 | 0.3%
Cc1ccc(NC(=O)C2CCCN(S(=O)(=O)c3cn(C(C)C)cn3)C2)c(C)c1 (stereo not given) | -4.7%
COc1cc(-c2nnc(CSc3nnc4nc(C)cc(C)n34)o2)cc(OC)c1OC | 2.0%
COC(=O)C(C)Sc1nc2c(c(=O)[nH]c(=O)n2C)n1CCCc1ccccc1 (stereo not given) | -12.9%
CC(C)(C)C(=O)NNC(=O)CCCOc1ccc(Cl)cc1Cl | 0.7%
CCOC(=O)C1=C(CN2CCc3ccccc32)NC(=O)NC1c1cc(C)ccc1C (stereo not given) | -1.1%
COC(=O)c1sccc1NC(=O)CC1C(=O)NCCN1C(=O)Nc1ccc(C(F)(F)F)cc1 (stereo not given) | -2.1%
COc1ccc(/C(N)=N/OC(=O)/C=C/c2ccccc2)cc1 | 10.4%
COc1cccc(C(=O)C2CCCN(Cc3cccc(-n4cccn4)c3)C2)c1 (stereo not given) | -16.0%
Cc1ccc(NC(=O)C2CCN(c3ncccn3)CC2)cc1F | -3.8%
Cc1ccccc1C(=O)NC(=S)Nc1ccc(S(=O)(=O)N(C)c2ccccc2)cc1 | -8.5%
CCOc1ccccc1NC(=O)Cn1c(=O)ccc2cc(S(=O)(=O)N3CCCC3)ccc21 | -0.9%
CN1CCN(c2ccc(S(=O)(=O)N3CCOCC3)cc2NC(=O)Cc2ccccc2F)CC1 | -23.4%
CCn1c(SCC(=O)Nc2ccc(C)cc2Br)nnc1-c1nonc1NC(C)=O | -2.9%
O=C(O)CCN1C(=O)CC(N2C(=O)/C(=C/c3ccc(Cl)cc3)SC2=S)C1=O (stereo not given) | -22.5%
Nc1nc(-c2ccccn2)nc(N)c1Cc1c(F)cccc1Cl | 13.9%
Cc1cc(C)c(C)c(S(=O)(=O)Nc2ccc3cn[nH]c3c2)c1C | -11.0%
CCC(=O)N1N=C(c2c(-c3ccccc3)c3cc(Cl)ccc3[nH]c2=O)CC1c1ccco1 (stereo not given) | -0.8%
Cc1ccc(NC(=S)N2C3CCCC2CC(NC(=O)C2CC2)C3)cc1C (stereo not given) | 10.9%
Cc1cccc(C(=O)Nc2cc(-c3nc4cccnc4s3)ccc2C)c1 | 3.2%
N#CC(=C1C=CC(=NO)C(Cl)=C1)c1ccc(Cl)cc1 | ?
O=S(=O)(O)c1cc(O)c2cc(Nc3ccccc3)ccc2c1 | ?
CCN(CC)c1ccc(C(=O)OCC(=O)N(C(C)C)C(C)C)cc1 | -17.4%
O=C(CN1CCN(c2ccccc2Cl)CC1)NC1CCCc2ccccc21 (stereo not given) | -18.3%
Cc1ccc(C(=O)Nc2nncs2)cc1S(=O)(=O)N1CCOCC1 | ?
COc1ccc(C(=O)CN(Cc2ccccc2)C2=NCCS2)cc1 | 0.7%
O=c1oc(CCO)cc2ccc(Br)cc12 | 18.6%
CCCCCCOC(=O)c1ccc(OC(=O)c2cccnc2)cc1 | -1.6%
O=C(c1ccc(Br)cc1)C(CN1CCOCC1)c1ccccc1 (stereo not given) | 39.8µM*
CC(=O)c1cc(C#N)c(SCC(=O)C(C)(C)C)nc1C | 9.0%
Cc1nc2ccc(S(=O)(=O)N(C)CC(=O)N3CCc4ccccc4C3)cc2s1 | -14.6%
CCC(=O)NCCc1sc2nc(-c3ccc(OC)cc3)nn2c1C | 6.8%

Reformatted with the structure last: entries from further up
| VDR inhibitor | Structure |
| --- | --- |
| ? | N#CC(=C1C=CC(=NO)C(Cl)=C1)c1ccc(Cl)cc1 |
| ? | O=S(=O)(O)c1cc(O)c2cc(Nc3ccccc3)ccc2c1 |
| -17.4% | CCN(CC)c1ccc(C(=O)OCC(=O)N(C(C)C)C(C)C)cc1 |
| -18.3% | O=C(CN1CCN(c2ccccc2Cl)CC1)NC1CCCc2ccccc21 (stereo not given) |

Further results follow:
canonical_smiles | VDR inhibitor
C=C(C)COc1ccc2c(c1)CCC1C2CCC2(C)C(=O)C(=NO)CC12 (stereo not given) | 3.4%
O=C(NCC(c1ccco1)S(=O)(=O)c1ccc(Cl)cc1)c1ccccc1F (stereo not given) | 14.1%
CCCOc1ccc(-c2c(=O)n(OCC(=O)OCC)c3ccccc3[n+]2[O-])cc1 | -3.2%
O=C(COC(=O)c1cc(=O)[nH]c2ccccc12)NC(=O)NC1CCCCC1 | -10.3%
CCOC(=O)Cc1csc(NC(=O)c2ccc(S(=O)(=O)N3CCCC3)cc2)n1 | 3.2%
O=C(/C=C/c1cccs1)NCc1cccnc1 | -9.7%
CC(C)C(c1nnnn1Cc1ccc(F)cc1)N1CCN(Cc2ccc3c(c2)OCO3)CC1 (stereo not given) | -1.3%
Cc1ccc(N(CCC#N)C(=O)COC(=O)C2CCN(c3ccc(C(F)(F)F)cn3)CC2)cc1 | 6.8%
Clc1ccc(-c2nnnn2-c2ccc(Cl)c(Cl)c2)cc1Cl | 9.4%
O=C(Oc1ccc(Cl)c2cccnc12)N1CCCCC1 | 0.5%
CCC1CCC2(CC1)NC(=O)N(CC(=O)Nc1ccc(OC)cc1)C2=O (stereo not given) | -6.2%
C=CCn1nnc2sc3c(c2c1=O)CCC(C)C3 (stereo not given) | -13.0%
COc1ccc(C(C(=O)NC2CCCC2)N(C(=O)c2ccco2)c2cc3c(cc2C(C)=O)OCO3)cc1 (stereo not given) | -5.8%
CCOc1c(C)cc2[nH]c(CCC(=O)O)nc2c1C | 13.7%
O=C(NCCN1C(=O)C2C3C=CC(C3)C2C1=O)Nc1ccccc1O (stereo not given) | -19.4%
CCCn1c(=O)c2sccc2n2c(CCCC(=O)N3CCN(c4ccc(OC)cc4)CC3)nnc12 | -11.9%
O=C(COC(=O)c1ccc[nH]c1=O)NC1CCCCC1 | -2.6%
CN(Cc1c(F)cccc1Cl)C(=O)c1ccc(COc2ccccc2)cc1 | 6.1%
O=C(COc1ccc(S(=O)(=O)N2CCc3ccccc32)cc1Cl)NCc1ccccn1 | 17.3%
COc1cccc(Cn2nnc(C(=O)NCc3ccc(Cl)cc3Cl)c2N)c1 | -3.8%
Cc1ccc(OCCNC(=O)C(=O)NCc2ccco2)cc1 | -9.1%
CC(C)(C)NC(=O)c1ccc2c(c1)CCO2 | -9.5%
Cc1ccc(S(=O)(=O)N2CCOCC(=O)NCCOCCNC(=O)COCC2)cc1 | -3.6%
CCOc1ccc(CNC(=O)C2CCN(c3nnc(-n4cccc4CNc4ccc(C)cc4)s3)CC2)cc1OC | -10.1%
CCSc1nnc(NC(=O)CCNC(=O)c2ccccc2Cl)s1 | ?
Cc1onc(-c2ccccc2)c1C(N)=O | -10.1%
